HIV Env fusion – inhibitors of HIV Env-mediated cell fusion. HeLa-JRFL Env/CEM21 cell fusion, luciferase. inhibition, % at 12.3 µM. actives 1.1% (n = 360,000);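 active means mean replicate inhibition score of at least 50 and every replicate individually at or above 50; inconclusive means only one of the two criteria met; inactive means mean below 50 and not all replicates reaching 50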;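 further: 0% = plate neutral controls and 100% = maraviroc near 300 nM; one replicate is shown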
UUG fidelity – yeast start codon fidelity modulation | S. cerevisiae UUG-firefly luciferase reporter, luminescence/redox ratio | activity score, % at 18.7 µM | actives 0.13% (n = 350,000);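 active means replicate mean at a twofold rise or more, about +100% in these data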;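 further: firefly luciferase made from a UUG start codon reports start codon fidelity; reporter light over untreated wells divided by growth signal over untreated wells; some hits fall short of that in this replicate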
Active calls of the source: *; & = joins results of further samples; [ ] = dose if it differs, or a comment. This is a subset; the hit share may differ from the screen's.

What do the screens show for `COc1ccc(S(=O)(=O)Nc2ccc3c(c2)C(=O)N([C@H](C)CO)C[C@@H](C)[C@@H](CN(C)C(=O)CCC(F)(F)F)OCCCC[C@H](C)O3)cc1`?
HIV Env fusion: -36.3[16.7 µM]; UUG fidelity: 25.3

Results for CNC(=O)C[C@H]1CC[C@H]2[C@@H](COc3ccc(NC(=O)Nc4cccc(C#N)c4)cc3C(=O)N2C)O1 ?
HIV Env fusion: -36.9[16.7 µM]; UUG fidelity: -11.7

What do the screens show for `COc1ccc(NC(=O)Nc2ccc3c(c2)C(=O)N([C@H](C)CO)C[C@H](C)[C@H](CN(C)C(=O)Nc2cccc4ccccc24)OCCCC[C@@H](C)O3)cc1`?
HIV Env fusion: 1.6[16.7 µM]; UUG fidelity: -13.8

Results for C[C@H]1CN([C@@H](C)CO)C(=O)c2cccc(NC(=O)Nc3ccc(C(F)(F)F)cc3)c2O[C@H]1CN(C)C(=O)NC1CCCCC1 ?
HIV Env fusion: inconclusive; UUG fidelity: 4.0

How did C[C@H](CO)N1C[C@H](C)[C@H](CN(C)S(=O)(=O)c2cccc(F)c2)Oc2ncc(-c3cccc(C(F)(F)F)c3)cc2C1=O do in these assays?
HIV Env fusion: -1.5[16.7 µM]; UUG fidelity: 6.0

How did C[C@@H]1CCCCO[C@H](CN(C)S(=O)(=O)c2cn(C)cn2)[C@H](C)CN([C@@H](C)CO)C(=O)c2cc(NS(=O)(=O)c3cn(C)cn3)ccc2O1 do in these assays?
HIV Env fusion: 9.0[16.7 µM]; UUG fidelity: 14.0

How did COc1ccc(S(=O)(=O)Nc2ccc3c(c2)C(=O)N([C@@H](C)CO)C[C@@H](C)[C@@H](CN(C)C(=O)Nc2cccc4ccccc24)OCCCC[C@@H](C)O3)cc1 do in these assays?
HIV Env fusion: -4.7[16.7 µM]; UUG fidelity: 0.0

What do the screens show for `C[C@@H]1CN([C@H](C)CO)C(=O)c2cc(NC(=O)C3CCCCC3)ccc2O[C@@H]1CN(C)C`?
HIV Env fusion: 27.0[16.7 µM]; UUG fidelity: -5.8

How did C/C=C/c1ccc2c(c1)O[C@H](CN(C)C(=O)c1ccccc1F)[C@H](C)CN([C@@H](C)CO)S2(=O)=O do in these assays?
HIV Env fusion: 22.6[16.7 µM]; UUG fidelity: 10.8

Results for O=C(C[C@@H]1CC[C@H](NC(=O)c2ccncc2)[C@@H](CO)O1)Nc1ccccc1 ?
HIV Env fusion: 0.8[16.7 µM]; UUG fidelity: -21.4

5 entries picked at random from the list so far:
What do the screens show for `C[C@@H]1CN([C@H](C)CO)C(=O)c2cc(NC(=O)C3CCCCC3)ccc2O[C@@H]1CN(C)C`?
HIV Env fusion: 27.0[16.7 µM]; UUG fidelity: -5.8

What do the screens show for `COc1ccc(NC(=O)Nc2ccc3c(c2)C(=O)N([C@H](C)CO)C[C@H](C)[C@H](CN(C)C(=O)Nc2cccc4ccccc24)OCCCC[C@@H](C)O3)cc1`?
HIV Env fusion: 1.6[16.7 µM]; UUG fidelity: -13.8

How did C[C@H](CO)N1C[C@H](C)[C@H](CN(C)S(=O)(=O)c2cccc(F)c2)Oc2ncc(-c3cccc(C(F)(F)F)c3)cc2C1=O do in these assays?
HIV Env fusion: -1.5[16.7 µM]; UUG fidelity: 6.0

How did COc1ccc(S(=O)(=O)Nc2ccc3c(c2)C(=O)N([C@@H](C)CO)C[C@@H](C)[C@@H](CN(C)C(=O)Nc2cccc4ccccc24)OCCCC[C@@H](C)O3)cc1 do in these assays?
HIV Env fusion: -4.7[16.7 µM]; UUG fidelity: 0.0

Results for O=C(C[C@@H]1CC[C@H](NC(=O)c2ccncc2)[C@@H](CO)O1)Nc1ccccc1 ?
HIV Env fusion: 0.8[16.7 µM]; UUG fidelity: -21.4

Continued:
What do the screens show for `C[C@H]1CN([C@@H](C)CO)C(=O)c2cc(-c3ccccc3)cnc2O[C@@H]1CN(C)C(=O)C1CCOCC1`?
HIV Env fusion: 0.5[16.7 µM]; UUG fidelity: -10.2

How did O=C(Nc1ccc2c(c1)[C@H]1C[C@H](CC(=O)N3CCCCC3)O[C@H](CO)[C@H]1O2)Nc1ccccc1F do in these assays?
HIV Env fusion: 1.4[16.7 µM]; UUG fidelity: 89.3

What do the screens show for `O=C(C[C@@H]1CC[C@@H](NC(=O)C2CC2)[C@H](CO)O1)NC1CCC1`?
HIV Env fusion: 5.8[16.7 µM]; UUG fidelity: -11.6

How did Cc1noc(C)c1S(=O)(=O)Nc1ccc2c(c1)C(=O)N([C@@H](C)CO)C[C@@H](C)[C@@H](CN(C)C(=O)C1CCCCC1)OCCCC[C@@H](C)O2 do in these assays?
HIV Env fusion: 3.4[16.7 µM]; UUG fidelity: 6.9

What do the screens show for `C[C@@H]1CCCCO[C@H](CN(C)C(=O)Nc2ccccc2)[C@H](C)CN([C@H](C)CO)C(=O)c2cc(NS(=O)(=O)c3cn(C)cn3)ccc2O1`?
HIV Env fusion: -26.9[16.7 µM]; UUG fidelity: -0.4

What do the screens show for `CNC(=O)C[C@H]1CC[C@@H]2[C@@H](COc3ccc(NC(=O)c4ccc(C(F)(F)F)cc4)cc3C(=O)N2C)O1`?
HIV Env fusion: 32.1[16.7 µM]; UUG fidelity: 3.6

How did C[C@@H]1CN([C@@H](C)CO)S(=O)(=O)c2ccc(C#CCN(C)C)cc2O[C@@H]1CN(C)Cc1ccccn1 do in these assays?
HIV Env fusion: -24.5[16.7 µM]; UUG fidelity: -13.8

How did COCC(=O)Nc1ccc2c(c1)C(=O)N(C)C[C@H](OC)[C@@H](C)CN(Cc1ccncc1)[C@H](C)CO2 do in these assays?
HIV Env fusion: -8.1[16.7 µM]; UUG fidelity: -13.6

What do the screens show for `CN(C)CCCNC(=O)C[C@H]1C=C[C@@H](NS(=O)(=O)c2ccc(F)cc2)[C@H](CO)O1`?
HIV Env fusion: 7.7[16.7 µM]; UUG fidelity: -7.7

How did CCCNC(=O)N(C)C[C@H]1Oc2ncc(-c3ccccc3)cc2C(=O)N([C@@H](C)CO)C[C@H]1C do in these assays?
HIV Env fusion: -7.3[16.7 µM]; UUG fidelity: -4.1

How did C[C@H]1CN([C@@H](C)CO)C(=O)c2cc(C#CCN(C)C)cnc2O[C@@H]1CN(C)C(=O)c1ccc(F)cc1 do in these assays?
HIV Env fusion: 8.3[16.7 µM]; UUG fidelity: 2.5

How did CC(C)CC#Cc1ccc2c(c1)O[C@H](CN(C)Cc1cccnc1)[C@H](C)CN([C@H](C)CO)S2(=O)=O do in these assays?
HIV Env fusion: 15.6[16.7 µM]; UUG fidelity: -7.0

Results for Cc1ccc(S(=O)(=O)Nc2ccc3c(c2)C(=O)N([C@@H](C)CO)C[C@@H](C)[C@@H](CN(C)Cc2ccc(C(F)(F)F)cc2)OCCCC[C@H](C)O3)cc1 ?
HIV Env fusion: 15.5[16.7 µM]; UUG fidelity: 14.4

What do the screens show for `O=C(Nc1ccccc1F)N[C@H]1CC[C@@H](CCNS(=O)(=O)c2ccccc2)O[C@H]1CO`?
HIV Env fusion: 0.2[16.7 µM]; UUG fidelity: 3.1

Results for CCS(=O)(=O)N[C@@H]1C=C[C@H](CC(=O)NCc2ccc(Cl)cc2)O[C@H]1CO ?
HIV Env fusion: 12.2[16.7 µM]; UUG fidelity: -10.5

How did C[C@@H]1CN([C@@H](C)CO)C(=O)c2cc(C#CCc3ccccc3)cnc2O[C@H]1CN(C)C(=O)C1CC1 do in these assays?
HIV Env fusion: -14.9[16.7 µM]; UUG fidelity: 0.1

How did COC(=O)C[C@@H]1C[C@@H]2c3cc(NC(=O)Nc4ccc(F)cc4)ccc3O[C@@H]2[C@H](CO)O1 do in these assays?
HIV Env fusion: -14.4[16.7 µM]; UUG fidelity: -17.7

Results for C[C@@H]1CN([C@H](C)CO)C(=O)c2cc(NC(=O)c3ccncc3)ccc2O[C@@H](C)CCCCO[C@H]1CN(C)C(=O)Nc1ccc(C(F)(F)F)cc1 ?
HIV Env fusion: -7.0[16.7 µM]; UUG fidelity: 11.0

What do the screens show for `Cc1ccccc1S(=O)(=O)NCC[C@@H]1CC[C@H](NC(=O)C2CC2)[C@@H](CO)O1`?
HIV Env fusion: 0.4[16.7 µM]; UUG fidelity: 0.3

How did CNC[C@@H]1Oc2c(NC(=O)Nc3c(C)noc3C)cccc2C(=O)N([C@H](C)CO)C[C@@H]1C do in these assays?
HIV Env fusion: -7.5[16.7 µM]; UUG fidelity: -23.1

How did COc1ccc(CN(C)C[C@@H]2Oc3ccc(NS(=O)(=O)c4cccs4)cc3C(=O)N([C@@H](C)CO)C[C@H]2C)cc1 do in these assays?
HIV Env fusion: -6.5[16.7 µM]; UUG fidelity: -34.2

What do the screens show for `CC(C)NC(=O)N(C)C[C@@H]1Oc2ncc(C#CCc3ccccc3)cc2C(=O)N([C@@H](C)CO)C[C@H]1C`?
HIV Env fusion: 9.9[16.7 µM]; UUG fidelity: 9.4

How did CCCNC(=O)N(C)C[C@H]1Oc2ncc(-c3ccncc3)cc2C(=O)N([C@H](C)CO)C[C@H]1C do in these assays?
HIV Env fusion: -4.0[16.7 µM]; UUG fidelity: -10.0

What do the screens show for `COCCOC(=O)N1C(=O)[C@@]2(c3cc(C#CCCO)ccc31)[C@H](C(=O)NC[C@H](O)c1ccccc1)[C@H]1C(=O)O[C@H](c3ccccc3)[C@H](c3ccccc3)N1[C@@H]2c1ccc(O)cc1`?
HIV Env fusion: -20.4[16.7 µM]; UUG fidelity: -6.4

Results for O=C(C[C@@H]1C[C@H]2c3cc(NC(=O)C4CCC4)ccc3O[C@H]2[C@H](CO)O1)NCc1ccncc1 ?
HIV Env fusion: 8.8[16.7 µM]; UUG fidelity: -0.2

Results for C[C@H]1CN([C@@H](C)CO)C(=O)c2cc(NC(=O)C3CC3)ccc2O[C@H]1CN(C)C(=O)Nc1ccc2c(c1)OCO2 ?
HIV Env fusion: 7.0[16.7 µM]; UUG fidelity: 0.6

What do the screens show for `C[C@H](CO)N1C[C@H](C)[C@H](CN(C)S(=O)(=O)c2ccccc2)Oc2ccc(NC(=O)Cc3ccccc3)cc2CC1=O`?
HIV Env fusion: 92.2*[16.7 µM]; UUG fidelity: 14.6

Results for [N-]=[N+]=Nc1ccccc1C[C@]1(C(=O)N2CCCCC2)N=C(c2ccc(OCCCO)cc2)O[C@H]1c1ccccc1 ?
HIV Env fusion: 32.5[16.7 µM]; UUG fidelity: 9.5

What do the screens show for `CC(C)NC(=O)N(C)C[C@@H]1Oc2ccc(NC(=O)C3CC3)cc2CC(=O)N([C@@H](C)CO)C[C@H]1C`?
HIV Env fusion: 17.9[16.7 µM]; UUG fidelity: -18.2

How did C[C@@H]1CCCCO[C@H](CN(C)Cc2ccc3c(c2)OCO3)[C@H](C)CN([C@H](C)CO)C(=O)c2cc(NS(=O)(=O)c3ccc(Cl)cc3)ccc2O1 do in these assays?
HIV Env fusion: 29.6&19.1[16.7 µM]; UUG fidelity: 4.4&-5.0

What do the screens show for `C[C@@H]1CN([C@@H](C)CO)C(=O)c2cc(Br)cnc2O[C@H]1CN(C)Cc1ccc2c(c1)OCO2`?
HIV Env fusion: 8.2[16.7 µM]; UUG fidelity: -3.6

Results for CCCNC(=O)N(C)C[C@H]1Oc2cc(C3=CCCC3)ccc2S(=O)(=O)N([C@@H](C)CO)C[C@H]1C ?
HIV Env fusion: 9.6[16.7 µM]; UUG fidelity: -9.8

What do the screens show for `Cc1noc(C)c1NC(=O)Nc1ccc2c(c1)CC(=O)N([C@H](C)CO)C[C@@H](C)[C@@H](CN(C)S(=O)(=O)c1cn(C)cn1)O2`?
HIV Env fusion: -0.2[16.7 µM]; UUG fidelity: 0.4

What do the screens show for `O=C(C[C@H]1C[C@H]2c3cc(NC(=O)NC4CCCCC4)ccc3O[C@H]2[C@H](CO)O1)NCc1cccnc1`?
HIV Env fusion: 6.3[16.7 µM]; UUG fidelity: -19.5

What do the screens show for `Cc1ccc(S(=O)(=O)Nc2ccc3c(c2)C(=O)N([C@@H](C)CO)C[C@H](C)[C@@H](CN(C)C(=O)c2ccccc2)OCCCC[C@H](C)O3)cc1`?
HIV Env fusion: 17.6[16.7 µM]; UUG fidelity: 30.7

Results for C[C@H](CO)N1C[C@H](C)[C@H](CN(C)CC2CCCCC2)Oc2c(NS(=O)(=O)c3ccc(Cl)cc3)cccc2C1=O ?
HIV Env fusion: -51.1[16.7 µM]; UUG fidelity: 17.5

How did C[C@@H]1CN([C@@H](C)CO)C(=O)c2cc(N(C)C)ccc2O[C@@H](C)CCCCO[C@@H]1CN(C)S(=O)(=O)c1ccccc1 do in these assays?
HIV Env fusion: 14.9[16.7 µM]; UUG fidelity: 12.3

Results for CCC(=O)N1C[C@@H](C)[C@@H](OC)CN(C)C(=O)c2cc(NC(=O)C3CC3)ccc2OC[C@@H]1C ?
HIV Env fusion: 5.2[16.7 µM]; UUG fidelity: 0.8

Results for CCNC(=O)C[C@H]1CC[C@@H]2[C@@H](COc3ccc(NC(=O)c4ccc(F)cc4)cc3C(=O)N2C)O1 ?
HIV Env fusion: -0.7[16.7 µM]; UUG fidelity: -2.7

How did COc1ccc(CN(C)C[C@@H]2Oc3ccc(NC(=O)Nc4c(C)noc4C)cc3C(=O)N([C@@H](C)CO)C[C@@H]2C)cc1 do in these assays?
HIV Env fusion: -15.5[16.7 µM]; UUG fidelity: -13.1

What do the screens show for `C[C@@H]1CN([C@H](C)CO)C(=O)c2cc(NC(=O)CCCN(C)C)ccc2O[C@H]1CN(C)Cc1ccncc1`?
HIV Env fusion: -9.2[16.7 µM]; UUG fidelity: -5.4

Results for O=C(N[C@@H]1CC[C@@H](CCNS(=O)(=O)c2ccc(Cl)cc2)O[C@H]1CO)c1cnccn1 ?
HIV Env fusion: 8.3[16.7 µM]; UUG fidelity: -0.8

What do the screens show for `CCCC#Cc1ccc2c(c1)O[C@H](CN(C)C(=O)c1ccncc1)[C@H](C)CN([C@@H](C)CO)S2(=O)=O`?
HIV Env fusion: 13.8[16.7 µM]; UUG fidelity: -6.1

Results for CC(C)CC#Cc1ccc2c(c1)O[C@@H](CN(C)CC1CCOCC1)[C@H](C)CN([C@H](C)CO)S2(=O)=O ?
HIV Env fusion: 28.0[16.7 µM]; UUG fidelity: -5.6

Bioassay records (PubChem BioAssay)
